ClpP mod = qHTS Assay for Activators of ClpP; purified B. subtilis ClpP, FRET peptide cleavage, 20 min; ATP-dependent Clp protease proteolytic subunit (Bacillus subtilis (strain 168)), P80244; 1.9% of 340,000 active; Potency, µM (top dose mostly 57.5 µM), for the others: at the top dose activity change, negative = active; AID 651965, 2013; active = well fitted falling curve with a large enough effect; inconclusive = small, poorly fitted or top-dose-only effect; inactive = no such curve, though single readings can be large or run the other way; note: potency is the fitted concentration of half-maximal effect; the source files actives as falling curves though it sought activators and does not explain the sign; nearly all actives have a fitted effect of over 65% in size; many hits overshoot -100%
Target sequence (P80244 whole entry, looked up): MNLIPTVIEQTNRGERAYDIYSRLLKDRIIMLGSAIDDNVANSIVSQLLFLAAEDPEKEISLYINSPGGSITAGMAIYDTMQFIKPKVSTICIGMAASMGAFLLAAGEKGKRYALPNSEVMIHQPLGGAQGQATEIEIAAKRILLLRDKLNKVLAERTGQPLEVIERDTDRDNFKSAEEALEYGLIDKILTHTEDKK
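FRET quenching reversal measured ClpP activation: 10 microg/mL B. subtilis ClpP at pH 8 with the FRET-FV decapeptide, read at 430 nm after 320 nm excitation. The 20-min minus 0-min signal was scaled between DMSO/no-enzyme wells and ADEP (5.8 microM final).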
TRPV1 potentiator = potentiators of human vanilloid receptor 1 (TRPV1); Q8NER1; TRPV1-expressing cells, Fluo-8 calcium influx, capsaicin EC20 potentiation; host cell line not named in the record; control for the full effect not named in the record; potentiation, % at 8.33 µM; 0.02% of 320,000 active; AID 540277; active means potentiation above 80%; inconclusive means 30% to 80%; inactive means below 30%; note: 0% is about no effect
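TRPV1-expressing cells were cultured overnight at 35.5C and loaded with Fluo-8 calcium dye for 40 to 90 min at room temperature. After a 10 s baseline, compound was added and calcium influx was read kinetically for 3 min (ex 480/em 520 nm).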
TRPML1 inh = human mucolipin-1 channel inhibition. Q9GZU1. TRPML1-inducible cells, Ca2+ dye fluorescence, FDSS; stronger effect = lower value; inhibition of EC80 agonist-evoked calcium signal. activity change, negative = inhibition, % (no concentration beside the values). 0.02% of 390,000 active; in the data active means activity change below about -50%; inconclusive means about -30% to -50%; inactive means above about -30%;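 note: stimulus is agonist 54-4 at its EC80 concentration; % is set by controls: 0 for no effect and ±100 for the full control effect; compound concentration not given in the record; the text of the record puts the active cut at -80%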
Target sequence (Q9GZU1 whole entry, looked up): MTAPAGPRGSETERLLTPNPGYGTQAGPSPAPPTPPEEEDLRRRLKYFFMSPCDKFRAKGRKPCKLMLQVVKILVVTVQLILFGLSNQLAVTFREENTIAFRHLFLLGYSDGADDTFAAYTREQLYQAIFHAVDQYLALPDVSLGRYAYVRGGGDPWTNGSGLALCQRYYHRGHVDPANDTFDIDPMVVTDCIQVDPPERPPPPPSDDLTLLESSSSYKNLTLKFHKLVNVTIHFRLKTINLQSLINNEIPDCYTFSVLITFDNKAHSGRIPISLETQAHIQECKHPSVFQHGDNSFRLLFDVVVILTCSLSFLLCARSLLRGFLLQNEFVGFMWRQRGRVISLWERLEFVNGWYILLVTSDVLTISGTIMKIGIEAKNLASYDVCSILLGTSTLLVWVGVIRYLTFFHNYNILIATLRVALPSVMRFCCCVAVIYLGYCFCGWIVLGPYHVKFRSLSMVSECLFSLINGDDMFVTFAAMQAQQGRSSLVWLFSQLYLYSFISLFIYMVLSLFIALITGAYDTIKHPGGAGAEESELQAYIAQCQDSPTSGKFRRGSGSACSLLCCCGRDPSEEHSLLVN
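TRPML1-DL cells, Tet-induced overnight (~16 h, 37 °C) at 1,500 cells/well, were loaded with Ca8 no-wash dye plus quencher for 45-90 min at room temperature. Compounds were pinned during FDSS kinetic reading; agonist 54-4 at EC80 (4 uM final) then added.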
PINK1 modulator = changes PINK1 expression; Potency, µM (top dose mostly 76.6 µM), without a hit: top-dose activation (PINK1 increase), actives largely listed as activators; AID 624263; PINK1 immunofluorescence, high-content cytometry, 24 h; 0.2% of 410,000 active; active = well fitted activation curve with a large enough effect; inconclusive = small, poorly fitted or top-dose-only effect; inactive = flat fitted curve, though single readings scatter; cell line not stated here;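 note: potency is the fitted concentration of half-maximal effect; % of control where 0% means no effect; nearly all actives have a fitted effect of over 65% in size; a mitochondrial uncoupler was the plate control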
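Decision-based qHTS: stable cells, 24 h exposure to five compound concentrations, CCCP as control. Fixed cells stained for PINK1 plus nuclear, mitochondrial and cell markers, cytometer read.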
TRPML1 ag = activates the human TRPML1 channel. TRPML1-expressing cells, Ca2+ dye fluorescence, FDSS; host cell line not named in the record; reference of the full effect not given here. activation, % (test concentration not listed). 0.12% of 410,000 active; in the data active = activation above about 50%; inconclusive = about 30% to 50%; inactive = below about 30%; note: 0% is about no effect; the text of the record puts the active cut at 80%
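TRPML1-DL cells, Tet-induced overnight (~16 h, 37 degrees C), loaded 45-90 min at room temperature with Ca8 no-wash calcium dye plus quencher. FDSS fluorescence: 10 s baseline, compound pin-transfer, 110 s agonist read, then EC80 54-4 (4uM final) and 110 s antagonist read.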
Sfp inh = blocks B. subtilis Sfp PPTase activity. Q9F4F7. Biochemical Sfp PPTase activity, qHTS. Potency, µM, for the others: max response, negative = inhibition, hits mostly inhibitors. 3.5% of 310,000 active; active = well fitted inhibition curve with a large enough effect; inconclusive = small, poorly fitted or top-dose-only effect, or another doubt; inactive = no such curve, though single readings can be large or run the other way;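 note: the enzyme is Sfp with the accession as filed and its product quenches rhodamine fluorescence; potency is the fitted concentration of half-maximal effect; 0% = enzyme reaction without inhibitor and -100% = no enzyme wells; top concentration of the series not given in the record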
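Fluorescence-quenching assay: 15 nM Sfp-PPTase preincubated 15 min at room temperature with compound, then 5 uM rhodamine-CoA and 12.5 uM BHQ-2-labelled YbbR peptide added. Fluorescence (ex 525/em 598 nm) read at start and after 30 min; difference gives rate.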
Menin MLL FP FL = menin-MLL binding inhibition, fluorescein peptide | 290,000 tested, under 10 active | Fluorescence polarization, fluorescein-MLL peptide displacement from menin | FP activity change, % at 61.4 µM | AID 1766; inconclusive = falling polarisation curve, or a change in total fluorescence; inactive = total fluorescence flat and polarisation flat or rising; no compound was filed as active; the % refers to the polarisation; negative = inhibition;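 note: % of control where 0% means no effect; inhibitors lower the polarisation; unlabelled MLL peptide was the positive control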
Starred values were filed as active, the others as inactive; u = inconclusive; x = not tested or not shown; [ ] = dose if it differs, or a comment.

Screens in order – ClpP mod	TRPV1 potentiator	TRPML1 inh	PINK1 modulator	TRPML1 ag	Sfp inh	Menin MLL FP FL
> O=C1S/C(=C\c2ccccn2)C(=O)N1Cc1ccccc1F
    -2.1%	-3	5	22%	2.6	25%	4.7
> CC1CCN(S(=O)(=O)c2ccc3ncn(CC(=O)Nc4ccccc4C(F)(F)F)c(=O)c3c2)CC1
    0.2%	x	5	0.0%	0.2	x	x
> NC(c1csc(Nc2ccc(C(=O)NCCO)cc2)n1)C1CCCCC1 (stereo not given)
    u	x	10	-0.3%	-0.3	x	x
> COc1ccc(-c2nc(O)c3cnccn23)cc1
    -4.1%	7	-13	-0.7%	0.1	-1%	x
> CCOc1c2ccccc2nn1CCO
    u	-18	13	0.3%	0.0	x	x
> CC(C)C[C@@H](N)c1nnc(SCC(=O)c2ccc(Cl)cc2)o1
    -1.6%	-3	-1	-1.0%[38.3 µM]	0.5	-3%	2.4
> CCCNC(=O)c1sc2c(c1C(=O)Nc1ccccn1)CCCC2
    x	-16	-3	1.3%	3.0	-28%	1.9
> CC(=O)Nc1cc2c(cc1Cl)-c1ccc(F)cc1C2O (stereo not given)
    x	x	-13	3.4%	0.9	x	x
> COCCCNC(=O)Cn1nc(N2CCN(c3ccccc3)CC2)ccc1=O
    -0.4%	x	10	-0.8%	2.6	x	x
> Cc1ccc(CN2CCCn3nc(C(=O)NCC(C)c4ccccc4)cc3C2=O)cc1 (stereo not given)
    -2.1%	x	4	-1.5%	0.7	x	x
> Cc1cc(C)n(S(=O)(=O)c2ccc3oc(=O)ccc3c2)n1
    x	-1	-5	-1.9%	3.0	8%	2.4
> COc1ccc(N2C(=O)C(Cl)=C(Nc3ccccc3OC)C2=O)cc1
    1.6%	-6	9	-0.9%	3.7	-9%	-0.7
> COC(=O)CCC(=O)OC1(C)C(=O)C2=CN(CC(C)C)C(c3ccc(OC)cc3)=CC2=C(Br)C1=O (stereo not given)
    x	u	x	x	x	u	u
> O=C(Nc1ccc(Cl)cc1)N(C1=NCCC1)c1ccc(OC(F)F)cc1
    -1.8%	-19	10	1.0%[38.3 µM]	24	u	5.2
> C/C(=N\Nc1nc2ccccc2[nH]1)c1cc2ccccc2o1
    0.2%	0	-12	4.0%	0.2	u	-0.7
> O=C(CN(Cc1ccccc1)C(=O)CCC(=O)Nc1nccs1)NCc1ccc(F)cc1
    x	-3	-6	1.4%	0.0	7%	-0.5
> CCOc1cc(N2CCOCC2)c(OCC)cc1NC(=O)c1cccc(N(C)C)c1
    x	-15	1	3.8%	0.2	-1%	0.9
> Cn1c(CN2CCOCC2)nnc1SCC(=O)NC1CCCCC1
    -0.9%	-5	-8	2.7%	0.5	18%	-1.0
> Cc1cc(NC(=O)CSc2nnc(-c3c[nH]c4ccccc34)n2C)no1
    1.3%	8	-7	0.6%	-0.4	3%	-0.7
> CC(c1ccccn1)N(CCN(C)C)C(=S)Nc1ccccc1F (stereo not given)
    1.4%	8	-4	-0.7%[38.3 µM]	-0.4	u	2.6
> Cc1cccc(C(=O)N(c2ccccn2)C(C)c2ccco2)c1 (stereo not given)
    -1.4%	-8	13	-0.7%	-0.9	23%	0.2
> O=C(Nc1ccc2c(c1)OCO2)Nc1ccc(Br)cn1
    -1.2%	1	21	5.1%[38.3 µM]	3.3	-19%	0.0
> CCCN(C(=O)c1sc2nc3n(c(=O)c2c1C)CCCC3)c1ccccc1C
    -2.0%	x	-1	-1.3%	-0.6	x	x
> Cc1c(C)c2ccc(OCC(=O)Nc3ccc(N4CCC(C)CC4)cc3)cc2oc1=O
    38%	14	-1	6.4%	-1.1	11%	x
> O=C(NC1CCCC1)C1CC(=O)N(CCc2ccccc2)C1 (stereo not given)
    -0.9%	-7	7	2.9%	1.7	18%	3.9
> O=C1c2ccccc2C(=O)N1CCC#Cc1ccc2cc(C3(O)CCCCC3)oc(=O)c2c1
    -18%	-2	8	-0.5%	-0.7	x	x
> CCN(C[C@H]1N[C@@](CC)(C(=O)OC)[C@H]2C(=O)N(C)C(=O)[C@@H]12)C(=O)C1CCCCC1
    0.1%	x	8	-0.6%	0.8	x	x
> CC(=O)Nc1ccc(-c2ccnc3c2CC(C)(C(=O)Nc2cccc(C(F)(F)F)c2)O3)cc1 (stereo not given)
    4.9%	x	x	7.6%	0.1	x	x
> CN(c1ccc(C(=O)Nc2ccccn2)cc1)S(=O)(=O)c1ccccc1
    -1.8%	-6	2	-2.2%	-0.1	6%	-3.4
> O=C(c1cncc(Br)c1)N1CCN(S(=O)(=O)c2ccccc2)CC1
    x	-4	4	0.2%	0.6	26%	6.3
> Cc1ccc(-n2c(SCC(N)=O)nc3c(oc4ccccc43)c2=O)cc1C
    0.5%	x	-5	0.2%	-0.2	x	x
> CCn1c(CNC(=O)c2ccc(Cl)cc2)nnc1SCC(=O)NC1=NCCS1
    x	-1	29	0.0%	0.4	-1%	3.3
> CCOC(=O)/C(=N\Nc1ccccc1)c1csc(Nc2ccc(C)cc2)n1
    8.1%	-11	53	u	-0.5	15%	-1.6
> COc1ccc(NS(=O)(=O)c2cccc(C(=O)NNC(=O)c3ccccc3O)c2)cc1
    x	-2	-5	2.1%	1.2	x	x
> CCOC(=O)N1CCN(C(=O)CSc2ncccn2)CC1
    0.4%	2	-9	2.0%	0.6	7%	2.7
> Cc1cccc(N2CCN(C(=O)CCNS(=O)(=O)c3ccc4c(c3)CCN4C(=O)C3CC3)CC2C)c1 (stereo not given)
    0.2%	x	-8	-3.0%	2.2	x	x
> Cc1ccc(C(=O)NCCNC(=O)CN2CCCC2)cc1
    0.4%	2	-3	0.0%	-0.6	18%	3.4
> Cc1cccc(NS(=O)(=O)c2ccc(NC(=O)CN(c3cc([N+](=O)[O-])ccc3C)S(C)(=O)=O)cc2)c1
    -1.7%	1	-3	18%	1.5	34%[activator]	5.5
> CC(C)COC(=O)N1CCCCC1c1cc(C(=O)N2CCOCC2)no1 (stereo not given)
    -2.4%	x	x	-0.6%	-0.5	x	x
> CC(C)c1[nH]nc2c1C(c1ccc(OC(=O)c3ccco3)cc1)C(C#N)=C(N)O2 (stereo not given)
    -0.7%	0	8	u	-0.2	8%	-0.4
> C=CC[C@H](CC(=O)NCCO)C(=O)N[C@@H](COC(=O)[C@@H](CC=C)Cc1ccc(F)cc1)Cc1ccccc1
    0.5%	x	-14	0.0%	-0.4	x	x
> O=C(c1ccc2c(=O)n(C3CCCC3)c(=S)[nH]c2c1)N1CCc2ccccc21
    0.7%	4	-9	1.4%	-0.5	6%	-0.6
> CC(=O)c1cnn(-c2cc(Oc3cccc(C)c3)ncn2)c1C
    -0.1%	9	-2	2.5%	1.9	-2%	-0.2
> Cc1ccccc1OCc1nc2ccccc2c(=O)n1/N=C/c1cn[nH]c1-c1ccccc1
    1.0%	25	-14	-3.7%	0.2	-6%	5.7
> O=C(c1ccc(C(F)(F)F)cc1)C1CCCN(C(=O)Cn2cnnn2)C1 (stereo not given)
    1.0%	-16	3	1.1%	0.3	2%	-0.8
> O=C(Nc1ccc2c(c1)oc1ccccc12)c1cccnc1
    38%	-5	19	0.9%	6.0	-1%	1.1
> COc1cccc2c(=S)c(CCC(C)=O)c(C)[nH]c12
    -21%	2	-9	-2.6%	-0.3	-3%	u
> C=CCOc1ccc(/C=C/C(=O)OCC(=O)NCCc2ccccc2)cc1
    -20%	-3	5	3.8%	4.2	x	x
> COC(=O)c1ccccc1S(=O)(=O)N(CCCN1CCOCC1)Cc1cccs1
    1.9%	u	0	-0.9%	0.1	4%	2.7
> Cc1cc(C)cc(OCCCC(=O)O)c1
    -4.5%	-9	-8	2.4%	1.1	3%	-2.8

(next part)
Screens in order – ClpP mod	TRPV1 potentiator	TRPML1 inh	PINK1 modulator	TRPML1 ag	Sfp inh	Menin MLL FP FL
> CCOC1=C2[C@@H](CN(S(=O)(=O)c3ccc(C)cc3)[C@H]2c2cccc3ccccc23)[C@H]2C(=O)N(C3CCCCC3)C(=O)[C@H]2C1
    -7.7%	x	0	1.3%	-0.2	x	x
> O=C(CSc1ncccc1C(=O)Oc1ccccc1Cl)Nc1ccc(C(F)(F)F)cc1Cl
    -2.0%	x	3	-0.3%	-0.2	x	x
> O=c1c2ccccc2oc2cc(-c3ccc(CN4CCOCC4)cc3)ccc12
    -4.9%	-4	-10	8.1%	1.4	x	x
> Cc1sc2nc(COC(=O)c3ccc(O)cc3)[nH]c(=O)c2c1C
    x	-6	-12	2.2%	-0.1	2%	6.5
> CCc1cc(CNC(=O)c2ccc(OC3CCN(C(C)=O)CC3)c(OC)c2)on1
    -6.2%	-18	9	0.9%	0.3	16%	1.3
> CSc1ccc(/C=N/NC(=O)CNc2cccc3ccccc23)cc1
    x	9	-22	3.2%	2.9	13%	0.2
> CC(C)SC1=NC(C)(C)C=C(/C=C/c2c(Cl)cccc2Cl)N1
    1.3%	4	7	16%	-0.4	-15%	6.8
> CC1=C(C(N)=O)C(c2ccc(C)cc2)n2nc(SCc3ccccc3)nc2N1 (stereo not given)
    -15%	x	-10	-0.7%	1.1	x	x
> CCn1cc(Br)c(C(=O)Nc2ccc(F)c(Cl)c2)n1
    -0.2%	-20	-1	-0.6%	-0.6	-16%	1.6
> COc1ccc2nc(SCC(N)=O)[nH]c2c1
    0.0%	3	10	-2.5%	0.0	7%	3.6
> COc1cc(Cl)ccc1OCc1cc(C(=O)N2CCN(C)C(=O)[C@@H]2C)no1
    -0.6%	x	-1	0.2%	-0.9	x	x
> O=C(Nc1ccc2nc(SCCOc3ccccc3)sc2c1)c1cccs1
    u	x	0	5.0%	0.0	x	x
> CC(C)(C)c1ccc(S(=O)(=O)NC(Cc2ccccc2)C(=O)O)cc1 (stereo not given)
    -0.2%	20	0	6.0%[38.3 µM]	-0.2	u	3.1
> Cc1cccc(OCC(=O)NCCCNC(=O)c2cccnc2)c1
    x	2	5	-0.5%	0.6	19%	11
> COc1ccc(-n2c(COc3ccc4c(c3)OCO4)nnc2SCC(=O)O)cc1
    1.2%	16	16	2.4%	1.3	13%	-0.5
> CN(C)c1ccc(C(=S)N2CCOCC2)cc1Br
    0.0%	-42	12	-2.4%	-1.0	u	2.2

Not a hit list. Share with any hit: about 4.4%.
